Assay outcomes: PubChem, The Scripps Research Institute Molecular Screening Center
PAFAH2 FP inh = PAFAH2 (human) inhibition; Q99487; recombinant PAFAH2, FP-rhodamine activity probe, fluorescence polarization; inhibition, % at 3.39 µM; 340,000 tested, 0.99% active; AID 492956;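 active = inhibition above the mean over all tested compounds plus 3 SD, cut at about 30% in these data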;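 note: inhibitors block probe labeling of enzyme so polarization drops; 0% = enzyme with DMSO and 100% = wells lacking PAFAH2 protein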
EBNA-1 inh = blocks EBNA-1 binding to DNA | EBNA-1 DNA binding, fluorescence polarization | 300,000 tested, 0.34% active | inhibition, % at 14.8 µM; in the data active = inhibition above about 28%
ZTA DNA inh = ZTA (EBV) inhibition in EBNA-1 counter-screen; ZTA-DNA binding, fluorescence polarization; inhibition, % at 11 µM; 320,000 tested, 0.15% active; AID 2234; in the data active = inhibition above about 33%
Target sequence (P03206 whole entry, looked up): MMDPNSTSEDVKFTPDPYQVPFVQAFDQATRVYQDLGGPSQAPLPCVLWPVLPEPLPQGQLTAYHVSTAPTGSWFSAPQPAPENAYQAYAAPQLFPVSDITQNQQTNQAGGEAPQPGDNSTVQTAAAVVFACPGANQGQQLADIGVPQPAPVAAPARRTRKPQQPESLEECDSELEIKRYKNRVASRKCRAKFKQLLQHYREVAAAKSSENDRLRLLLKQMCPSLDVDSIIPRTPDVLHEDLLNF
LYPLA1 counter = counter-screen for PME1 inhibitors: inhibitors of human LYPLA1 | inhibition, % at 5.9 µM | recombinant LYPLA1, FP-Rh probe fluorescence polarization | 320,000 tested, 0.16% active | O75608 | AID 2174;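 active = inhibition above the mean of all tested compounds plus 3 SD, set per campaign, cut at about 14% in these data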;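 note: inhibitors block serine hydrolase probe labeling of LYPLA1 so polarization falls; 0% = enzyme with DMSO and 100% = wells lacking LYPLA1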
Target sequence (O75608 whole entry, looked up): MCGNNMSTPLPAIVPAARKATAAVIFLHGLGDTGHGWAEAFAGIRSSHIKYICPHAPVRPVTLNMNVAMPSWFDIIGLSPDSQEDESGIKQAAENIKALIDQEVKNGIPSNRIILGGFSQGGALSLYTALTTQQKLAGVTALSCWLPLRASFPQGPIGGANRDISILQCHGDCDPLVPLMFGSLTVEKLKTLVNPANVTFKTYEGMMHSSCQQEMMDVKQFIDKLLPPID
PAFAH1B3 inh = blocks human PAF acetylhydrolase 1B catalytic subunit 3; Q15102; recombinant PAFAH1B3, FP-rhodamine probe, fluorescence polarization; inhibition, % at 3.39 µM; 340,000 tested, 0.28% active;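 active = inhibition above the screen-wide average of all tested compounds plus 3 SD, cut at about 25% in these data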;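 note: 0% = enzyme with DMSO only and 100% = wells lacking PAFAH1B3 protein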
LYPLA2 inh = LYPLA2 (human) inhibition in PME1 counter-screen. recombinant LYPLA2, FP-Rh probe fluorescence polarization. inhibition, % at 5.9 µM. 320,000 tested, 0.38% active;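 active = inhibition above the screen-wide mean plus 3 SD, limit set per campaign, cut at about 26% in these data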;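 note: 0% = LYPLA2 with DMSO and 100% = wells lacking LYPLA2 enzyme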
Target sequence (O95372 whole entry, looked up): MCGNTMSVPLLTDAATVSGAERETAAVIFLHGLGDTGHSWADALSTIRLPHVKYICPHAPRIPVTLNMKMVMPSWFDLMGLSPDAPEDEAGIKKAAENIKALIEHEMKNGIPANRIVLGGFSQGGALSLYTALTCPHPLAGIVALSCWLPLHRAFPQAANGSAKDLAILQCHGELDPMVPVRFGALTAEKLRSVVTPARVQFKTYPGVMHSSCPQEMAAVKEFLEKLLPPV
* hit, by the source's call; x = not tested or not shown. A portion of the library; rates above refer to the full screens.

SMILES	PAFAH2 FP inh	EBNA-1 inh	ZTA DNA inh	LYPLA1 counter	PAFAH1B3 inh	LYPLA2 inh
FC(F)(F)c1ccc(N2CCN(c3cc(-c4ccccc4)nc4ncnn34)CC2)nc1	-0.7	4.2	-15.5	-1.8	-0.9	2.9
CCn1c(COc2ccc(Cl)cc2)nnc1SCC(=O)Nc1ccc2c(c1)OCCO2	8.1	-4.2	8.3	2.7	11.5	-3.9
O=C(c1ccccc1)c1cc(-c2ccccc2)on1	-20.7	3.3	5.3	3.3	1.2	6.2
CC(=O)Nc1ccc(S(=O)(=O)N[C@@H](C)C(=O)OCC(=O)c2ccc[nH]2)cc1	1.1	x	x	x	4.6	x
COc1ccc(-n2c3c(c(=O)[nH]c2=O)C(NC(C)=O)(C(F)(F)F)C(=O)N3)cc1 (stereo not given)	1.5	-4.3	-1.1	1.1	11.6	2.5
O=C(NC1(C(F)(F)F)C(=O)Nc2c1c(=O)[nH]c(=O)n2-c1ccccc1)c1ccncc1 (stereo not given)	-0.7	4.1	-3.8	4.3	1.1	2.3
O=c1cc(C23CC4CC(CC(C4)C2)C3)[nH][nH]1	5.8	2.7	17.7	2.5	1.6	-3.4
O=C(COC(=O)c1ccc(NS(=O)(=O)c2ccc3c(c2)OCCO3)cc1)NC1CCS(=O)(=O)C1 (stereo not given)	1.3	-9.8	7.8	2.1	13.8	4.9
CC1=CC(C)(C)Nc2ccc(OC(=O)C(C)N3C(=O)c4ccccc4C3=O)cc21 (stereo not given)	5.2	0.8	5.0	-2.2	10.4	3.2
C=CCOc1nc2c(c(=O)n(C)c(=O)n2C)n1Cc1ccc(Cl)cc1Cl	8.0	-14.1	2.4	0.9	5.3	-0.9
CCN(CC)CC(=O)Nc1ccc2c(c1)Nc1ccccc1CC2	3.0	0.6	0.0	-4.5	6.3	-1.9
CN(C)/C=C/C(=O)c1nnn(C2CCCCC2)c1NC1CCCCC1	4.7	11.4	8.6	-2.7	3.1	-4.3
C=CCn1c(CCNC(=O)c2cccs2)nnc1SCC(=O)Nc1cccc(C(C)=O)c1	10.8	-13.1	-3.1	-0.3	0.0	1.5
Cc1nc2cc(S(=O)(=O)N3CCC(C(=O)O)CC3)ccc2n1C1CCCC1	0.0	-6.7	5.4	0.9	4.7	-3.1
O=C(NN=Cc1ccc(OC(F)F)cc1)c1ccc(NS(=O)(=O)c2cccs2)cc1	7.2	x	x	x	9.8	x
Cc1cc(C)n(-c2ccc(F)cc2)c(=O)c1C(=O)O	-13.5	-7.7	-4.9	2.5	-9.1	0.1
C=CCn1c(CCNC(=O)c2ccccc2F)nnc1SCC(=O)Nc1nc(C)cs1	-2.8	-2.4	1.5	0.6	0.0	-4.6
O=C(Nc1ccc2c(c1)OCCO2)c1cc(-c2ccccc2)nc2ccccc12	-15.5	15.0	7.5	-11.9	-3.4	-23.4
COc1ccc(/C(O)=C2\C(=O)C(=O)N(c3cc(C)on3)C2c2ccc(OC)c(OC)c2)cc1OC (stereo not given)	-1.2	9.6	-0.6	1.4	4.8	2.5
COc1ccc(CNc2cccc(F)c2)cc1Br	-2.9	2.1	-4.5	-0.7	3.8	6.1
C=CCn1c(CCNC(=O)c2ccccc2F)nnc1SCC(=O)Nc1nc2ccccc2s1	4.5	4.9	-6.4	-1.1	0.1	4.0
NC(=O)c1cc(NC(=O)c2ccc(NS(=O)(=O)c3cccs3)cc2)cc(C(N)=O)c1	8.2	-1.6	-4.9	0.6	7.2	2.1
CCn1c(CNc2ccc(C)cc2)nnc1SCC(N)=O	-7.3	-11.5	3.0	-1.4	-0.6	-3.3
CC(=O)N(CCC(c1ccco1)C(C)C)Cc1ccc(Cl)cc1 (stereo not given)	x	-7.4	-7.2	2.6	x	1.5
CC(=O)Nc1cccc(-c2nc3ccccc3[nH]2)c1	0.0	2.8	-5.7	0.5	5.2	-1.4

Overlap with the part before: two compounds; new compounds follow.
SMILES	PAFAH2 FP inh	EBNA-1 inh	ZTA DNA inh	LYPLA1 counter	PAFAH1B3 inh	LYPLA2 inh
CC(=O)N(CCC(c1ccco1)C(C)C)Cc1ccc(Cl)cc1 (stereo not given)	x	-7.4	-7.2	2.6	x	1.5
CC(=O)Nc1cccc(-c2nc3ccccc3[nH]2)c1	0.0	2.8	-5.7	0.5	5.2	-1.4
CCc1nc2c(n1O)CCc1nonc1-2	5.5	5.9	-6.3	1.4	-1.0	5.8
CC(=O)[C@H]1[C@H]([C@H](O)[C@H](O)CO)O[C@](O)(C(=O)O)C[C@@H]1O	-2.3	-2.0	-10.8	-5.6	-0.2	-1.3
CCn1c(Cc2ccccc2)nnc1SCC(=O)Nc1ccc(C)cc1	2.1	-7.7	7.1	-0.1	1.5	-0.2
Cc1ccc(S(=O)(=O)N(CC(=O)Nc2ccccc2C(=O)O)c2ccc(Cl)cc2)cc1	5.3	-1.2	-3.3	0.9	-0.5	-1.5
Cc1nc(NC(=O)c2ccc(Cl)cc2)sc1Cc1ccc2c(c1)OCO2	-6.3	8.9	-2.4	-9.5	7.7	-9.3
Cc1ccc(Cn2c(=O)n(Cc3ccco3)c(=O)c3ccccc32)cc1	-5.1	-2.9	-6.9	-1.7	7.7	6.2
C=CCNC(=O)Nc1ccc2nc(C)sc2c1	1.6	-21.8	1.6	-1.8	6.7	-2.5
Cn1c(SCCOc2cccc(Cl)c2)nnc1-c1ccncc1	6.8	8.6	-7.7	-3.2	3.3	-4.7
Cc1nn(C(C)C(=O)O)c2ccccc12 (stereo not given)	-1.6	-11.5	-16.7	1.7	5.6	-1.9

Laid out differently: 16 of the compounds above
Below each SMILES: PAFAH2 FP inh | EBNA-1 inh | ZTA DNA inh | LYPLA1 counter | PAFAH1B3 inh | LYPLA2 inh
> Cc1cc(C)n(-c2ccc(F)cc2)c(=O)c1C(=O)O
    -13.5 | -7.7 | -4.9 | 2.5 | -9.1 | 0.1
> C=CCn1c(CCNC(=O)c2ccccc2F)nnc1SCC(=O)Nc1nc(C)cs1
    -2.8 | -2.4 | 1.5 | 0.6 | 0.0 | -4.6
> O=C(Nc1ccc2c(c1)OCCO2)c1cc(-c2ccccc2)nc2ccccc12
    -15.5 | 15.0 | 7.5 | -11.9 | -3.4 | -23.4
> COc1ccc(/C(O)=C2\C(=O)C(=O)N(c3cc(C)on3)C2c2ccc(OC)c(OC)c2)cc1OC (stereo not given)
    -1.2 | 9.6 | -0.6 | 1.4 | 4.8 | 2.5
> COc1ccc(CNc2cccc(F)c2)cc1Br
    -2.9 | 2.1 | -4.5 | -0.7 | 3.8 | 6.1
> C=CCn1c(CCNC(=O)c2ccccc2F)nnc1SCC(=O)Nc1nc2ccccc2s1
    4.5 | 4.9 | -6.4 | -1.1 | 0.1 | 4.0
> NC(=O)c1cc(NC(=O)c2ccc(NS(=O)(=O)c3cccs3)cc2)cc(C(N)=O)c1
    8.2 | -1.6 | -4.9 | 0.6 | 7.2 | 2.1
> CCn1c(CNc2ccc(C)cc2)nnc1SCC(N)=O
    -7.3 | -11.5 | 3.0 | -1.4 | -0.6 | -3.3
> CC(=O)N(CCC(c1ccco1)C(C)C)Cc1ccc(Cl)cc1 (stereo not given)
    x | -7.4 | -7.2 | 2.6 | x | 1.5
> CC(=O)Nc1cccc(-c2nc3ccccc3[nH]2)c1
    0.0 | 2.8 | -5.7 | 0.5 | 5.2 | -1.4
> CCc1nc2c(n1O)CCc1nonc1-2
    5.5 | 5.9 | -6.3 | 1.4 | -1.0 | 5.8
> CC(=O)[C@H]1[C@H]([C@H](O)[C@H](O)CO)O[C@](O)(C(=O)O)C[C@@H]1O
    -2.3 | -2.0 | -10.8 | -5.6 | -0.2 | -1.3
> CCn1c(Cc2ccccc2)nnc1SCC(=O)Nc1ccc(C)cc1
    2.1 | -7.7 | 7.1 | -0.1 | 1.5 | -0.2
> Cc1ccc(S(=O)(=O)N(CC(=O)Nc2ccccc2C(=O)O)c2ccc(Cl)cc2)cc1
    5.3 | -1.2 | -3.3 | 0.9 | -0.5 | -1.5
> Cc1nc(NC(=O)c2ccc(Cl)cc2)sc1Cc1ccc2c(c1)OCO2
    -6.3 | 8.9 | -2.4 | -9.5 | 7.7 | -9.3
> Cc1ccc(Cn2c(=O)n(Cc3ccco3)c(=O)c3ccccc32)cc1
    -5.1 | -2.9 | -6.9 | -1.7 | 7.7 | 6.2
